Source: PubChem BioAssay
TRPML1 ag = activates the human TRPML1 channel; 410,000 compounds, 0.12% hits; Q9GZU1; TRPML1-expressing cells, Ca2+ dye fluorescence, FDSS; host cell line not named in the record; reference of the full effect not given here; activation, % (test concentration not listed); in the data active = activation above about 50%; inconclusive = about 30% to 50%; inactive = below about 30%; also: 0% is about no effect; the text of the record puts the active cut at 80%
Target sequence (Q9GZU1 whole entry, looked up): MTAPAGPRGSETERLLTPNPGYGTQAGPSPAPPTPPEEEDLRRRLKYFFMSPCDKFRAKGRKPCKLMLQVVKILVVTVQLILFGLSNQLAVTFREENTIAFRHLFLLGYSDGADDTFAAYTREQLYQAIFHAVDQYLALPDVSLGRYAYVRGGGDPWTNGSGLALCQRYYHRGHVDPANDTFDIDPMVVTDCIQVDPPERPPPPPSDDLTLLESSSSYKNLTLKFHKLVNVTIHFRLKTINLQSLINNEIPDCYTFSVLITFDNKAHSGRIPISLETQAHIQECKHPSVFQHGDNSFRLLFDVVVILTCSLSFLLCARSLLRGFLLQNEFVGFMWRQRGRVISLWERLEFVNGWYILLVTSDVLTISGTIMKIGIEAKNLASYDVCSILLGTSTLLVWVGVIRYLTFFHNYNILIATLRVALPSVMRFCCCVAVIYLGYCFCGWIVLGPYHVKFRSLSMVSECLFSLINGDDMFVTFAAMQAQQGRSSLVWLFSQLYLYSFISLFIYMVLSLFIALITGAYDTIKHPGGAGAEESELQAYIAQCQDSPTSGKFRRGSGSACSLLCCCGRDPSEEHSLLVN
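Agonist activity was taken from a 110 s kinetic Ca2+ dye read on the FDSS after pinning compounds onto TRPML1-DL cells. The cells were seeded at 1,500/well with Tet inducer, incubated about 16 h, then dye-loaded at room temperature.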
Menin MLL FP FL = displaces fluorescein MLL peptide from human menin; Fluorescence polarization, fluorescein-MLL peptide displacement from menin; FP activity change, % at 61.4 µM; 290,000 tested, under 10 active; inconclusive = falling polarisation curve, or a change in total fluorescence; inactive = total fluorescence flat and polarisation flat or rising; no compound was filed as active; the % refers to the polarisation; negative = inhibition;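 also: % of control where 0% means no effect; inhibitors lower the polarisation; unlabelled MLL peptide was the positive control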
ClpP mod = qHTS Assay for Activators of ClpP; ATP-dependent Clp protease proteolytic subunit (Bacillus subtilis (strain 168)), P80244; purified B. subtilis ClpP, FRET peptide cleavage, 20 min; Potency, µM (series often up to 57.5 µM), inactives show top-dose activity change, negative = active; 340,000 compounds, 1.9% hits; AID 651965, 2013; active = well fitted falling curve with a large enough effect; inconclusive = small, poorly fitted or top-dose-only effect; inactive = no such curve, though single readings can be large or run the other way; also: potency is read from the fitted curve at half-maximal effect; the source files actives as falling curves though it sought activators and does not explain the sign; nearly all actives have a fitted effect of over 65% in size; many hits overshoot -100%
Target sequence (P80244 whole entry, looked up): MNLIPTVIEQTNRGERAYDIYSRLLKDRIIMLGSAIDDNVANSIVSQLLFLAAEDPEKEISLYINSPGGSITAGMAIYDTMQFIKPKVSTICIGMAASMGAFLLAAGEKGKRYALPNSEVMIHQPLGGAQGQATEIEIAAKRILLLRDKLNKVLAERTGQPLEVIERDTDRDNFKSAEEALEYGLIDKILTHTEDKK
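FRET quenching reversal measured ClpP activation: 10 microg/mL B. subtilis ClpP at pH 8 with the FRET-FV decapeptide, read at 430 nm after 320 nm excitation. The 20-min minus 0-min signal was scaled between DMSO/no-enzyme wells and ADEP (5.8 microM final).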
TRPML1 blocker = inhibitors of human TRPML1 channel. 390,000 compounds, 0.02% hits. Q9GZU1. TRPML1-inducible cells, Ca2+ dye fluorescence, FDSS; stronger effect = lower value; inhibition of EC80 agonist-evoked calcium signal. AID 624415. activity change, negative = inhibition, % (concentration not given with the values); in the data active means activity change below about -50%; inconclusive means about -30% to -50%; inactive means above about -30%;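 also: stimulus is agonist 54-4 at its EC80 concentration; % is scaled to controls: 0 for no effect and ±100 for the full control effect; the text of the record puts the active cut at -80%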
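Tet-induced TRPML1-DL cells loaded with Ca8 no-wash calcium dye were read kinetically on FDSS. Compound addition was followed by EC80 agonist 54-4 (4 uM final); inhibition was read over 110 s.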
Sfp inh = inhibitors of Bacillus subtilis Sfp phosphopantetheinyl transferase | Q9F4F7 | Biochemical Sfp PPTase activity, qHTS | Potency, µM, without a hit: max response, negative = inhibition, hits mostly inhibitors | 310,000 compounds, 3.5% hits; active = well fitted inhibition curve with a large enough effect; inconclusive = small, poorly fitted or top-dose-only effect, or another doubt; inactive = no such curve, though single readings can be large or run the other way;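 also: the enzyme is Sfp with the accession as filed and its product quenches rhodamine fluorescence; potency is read from the fitted curve at half-maximal effect; 0% = enzyme reaction without inhibitor and -100% = no enzyme wells; top concentration of the series not given in the record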
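Step 1, compound plus 15 nM Sfp-PPTase, 15 min, room temperature. Step 2, add rhodamine-CoA (5 uM) and BHQ-2-YbbR (12.5 uM). Step 3, read 525/598 nm fluorescence at 0 and 30 min.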
PINK1 modulator = PINK1 expression modulation; Potency, µM (titrated, usually from 76.6 µM), without a hit: top-dose activation (PINK1 increase), usual class: activators; PINK1 immunofluorescence, high-content cytometry, 24 h; 410,000 compounds, 0.2% hits; AID 624263; active = well fitted activation curve with a large enough effect; inconclusive = small, poorly fitted or top-dose-only effect; inactive = flat fitted curve, though single readings scatter; cell line not stated here;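 also: potency is read from the fitted curve at half-maximal effect; % of control where 0% means no effect; nearly all actives have a fitted effect of over 65% in size; a mitochondrial uncoupler was the plate control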
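Readout is PINK1 immunofluorescence, quantified alongside mitochondrial, cell and nuclear markers by laser-scanning microplate cytometry. Cells from a stable line were exposed to compound titrations (5 concentrations) for 24 hours, with CCCP controls.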
TRPV1 PAM = potentiators of human vanilloid receptor 1 (TRPV1); Q8NER1; TRPV1-expressing cells, Fluo-8 calcium influx, capsaicin EC20 potentiation; host cell line not named in the record; control for the full effect not named in the record; potentiation, % at 8.33 µM; 320,000 compounds, 0.02% hits; AID 540277; active means potentiation above 80%; inconclusive means 30% to 80%; inactive means below 30%; also: 0% is about no effect
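Cells expressing TRPV1 were dye-loaded with Fluo-8 and read kinetically: 10 s baseline, 3 min after compound (agonist portion), then 2 min after EC20 capsaicin (allosteric enhancer portion). Calcium-bound dye fluorescence at 480/520 nm.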
* hit, by the source's call; ? = inconclusive; / = no result given; & = joins results of further samples; [ ] = another dose, or the depositor's remark.

Preview, three compounds:
Short keys – A = TRPML1 ag; B = Menin MLL FP FL; C = ClpP mod; D = TRPML1 blocker; E = Sfp inh; F = PINK1 modulator; G = TRPV1 PAM
O=C(NCCCN1CCOCC1)c1cc(-c2ccc(F)cc2)nc2ccccc12
  A = -0.2 | B = / | C = 4.6% | D = 0 | E = / | F = -1.4% | G = -5
Cc1cc(C)n2nc(C(=O)NCc3ccco3)nc2n1
  A = 1.1 | B = / | C = -1.7% | D = 20 | E = / | F = 1.1% | G = /
Cc1cccc(N2CCN(C(=O)c3nn(C)c4c3CS(=O)(=O)c3ccccc3-4)CC2)c1C
  A = 1.1&-0.1 | B = / | C = -13%&-0.7% | D = -3&-8 | E = 10% | F = -0.4%&6.1% | G = 27

All compounds of this part, from the start:
Short keys – A = TRPML1 ag; B = Menin MLL FP FL; C = ClpP mod; D = TRPML1 blocker; E = Sfp inh; F = PINK1 modulator; G = TRPV1 PAM
O=C(NCCCN1CCOCC1)c1cc(-c2ccc(F)cc2)nc2ccccc12
  A = -0.2 | B = / | C = 4.6% | D = 0 | E = / | F = -1.4% | G = -5
Cc1cc(C)n2nc(C(=O)NCc3ccco3)nc2n1
  A = 1.1 | B = / | C = -1.7% | D = 20 | E = / | F = 1.1% | G = /
Cc1cccc(N2CCN(C(=O)c3nn(C)c4c3CS(=O)(=O)c3ccccc3-4)CC2)c1C
  A = 1.1&-0.1 | B = / | C = -13%&-0.7% | D = -3&-8 | E = 10% | F = -0.4%&6.1% | G = 27
CC(C)(C)NC(=O)CN(C(=O)CCC(=O)Nc1nccs1)c1ccccc1F
  A = 0.4 | B = / | C = -1.7% | D = 3 | E = / | F = -0.1% | G = /
Cc1ccccc1C(=O)N1CCC(N2CCN(Cc3ccc(F)cc3)C(=O)C2=O)CC1
  A = -1.4 | B = / | C = 0.0% | D = 16 | E = / | F = 1.7% | G = /
O=C(c1ccc(F)cc1)c1ccc(OCC(=O)N2CCOCC2)cc1
  A = -0.5 | B = / | C = 1.3% | D = 29 | E = / | F = 2.8% | G = /
COC(=O)c1ccc(CSc2ccc3nnc(-c4ccc(OC)c(OC)c4)n3n2)o1
  A = -0.5 | B = / | C = -0.9% | D = -2 | E = / | F = 1.1% | G = /
COc1cccc(-n2c(-c3ccco3)nc3c(cnn3-c3ccc(C)cc3)c2=O)c1
  A = 2.1 | B = / | C = -30% | D = -14 | E = / | F = 0.8% | G = /
CCCn1nnnc1NCc1cccc(OC)c1
  A = 0.1 | B = -4.4 | C = 1.0% | D = 26 | E = 1% | F = 0.4% | G = 7
COc1cc(/C=c2\sc3nc(-c4ccncc4)nn3c2=O)ccc1OC(C)=O
  A = / | B = 7.6 | C = / | D = / | E = -21% | F = / | G = -1
C[C@H]1CN([C@@H](C)CO)C(=O)Cc2cc(NC(=O)CCC(F)(F)F)ccc2O[C@H]1CN(C)C(=O)Nc1ccc(F)cc1
  A = -0.3 | B = / | C = -0.7% | D = -12 | E = / | F = 3.3% | G = /
CCCCCn1c(=O)[nH]c2cc(C(=O)NCCCN(CC)CC)ccc2c1=O
  A = 1.7 | B = -3.5 | C = 28µM* | D = 48 | E = 6% | F = 2.2% | G = -12
Cc1[nH]c2ccc(C(=O)N3CCN(Cc4ccccc4)CC3)cc2c1C
  A = 0.1 | B = -3.7 | C = / | D = -3 | E = -1% | F = -0.7% | G = 1
Cc1cc(NC(=O)CCC(=O)N(Cc2ccco2)C2(C(=O)NC3CCCCC3)CCCC(C)C2)no1 (configuration not stated)
  A = -0.3 | B = 1.8 | C = / | D = -17 | E = 3% | F = -0.4% | G = -6
COc1ccc(-c2cc(C(=O)Nc3c(C(=O)c4ccc(C)c(F)c4)oc4ccccc34)no2)cc1
  A = 1.3 | B = / | C = -0.2% | D = 37 | E = / | F = -0.9% | G = /
O=C1NCC(O)=C1C=NCCCO
  A = 0.4 | B = 3.7 | C = 1.6% | D = 38 | E = 19% | F = -0.3%[38.3 µM] | G = 6
CCOC(=O)C1=CNS(=O)(=O)NC1c1ccc(OC(C)=O)cc1 (configuration not stated)
  A = 1.3 | B = / | C = -16% | D = 44 | E = / | F = 1.7% | G = /
O=C(CSc1nnc2ccccn12)Nc1cccc(S(=O)(=O)N2CCOCC2)c1
  A = -0.6 | B = 0.6 | C = -7.4% | D = -4 | E = 8% | F = -0.9% | G = 5
O=C(NCc1ccco1)c1ccc2nc([C@@H]3O[C@H](CO)[C@H](O)[C@H](O)[C@H]3O)[nH]c2c1
  A = -0.2 | B = / | C = -2.7% | D = / | E = / | F = 0.9% | G = /
CCOC(=O)CSc1nc2ccsc2c(=O)[nH]1
  A = -0.3 | B = -1.3 | C = / | D = 14 | E = 12% | F = -0.3% | G = 8
Cc1ccc(N(C)C(=O)CCNC(=O)Cn2cnc3ccccc3c2=O)cc1C
  A = -0.3 | B = / | C = / | D = 9 | E = 1% | F = 0.2% | G = -10
COc1cc2c(c(OC)c1OC)-c1c(cc(OC)c(OC)c1OC)C[C@](C)(O)[C@@H](C)C2
  A = 0.9 | B = -1.3 | C = 1.2% | D = -9 | E = 2% | F = 0.3% | G = -28
COc1ccc(/C=N/NC(=O)c2ccn[nH]2)cc1CSc1ccccn1
  A = 0.9 | B = 1.5 | C = 2.5% | D = 9 | E = 33%[activator] | F = -0.1% | G = 4
O=C(Nc1ccc(F)cc1)c1ccccc1S(=O)(=O)c1ccccc1[N+](=O)[O-]
  A = -0.4 | B = 4.2 | C = 1.4% | D = -27 | E = 14% | F = -2.1% | G = 4
Nc1ccn(-c2ccc(Cl)cc2)c(=O)c1
  A = 0.5 | B = 6.7 | C = -1.3% | D = -2 | E = 4% | F = -0.1% | G = -2
O=C(COC(=O)CCN1C(=O)c2ccccc2C1=O)Nc1ccc(S(=O)(=O)N2CCCC2)cc1
  A = -0.2 | B = -1.4 | C = -2.1% | D = 25 | E = -25% | F = 1.5% | G = 8
Cc1ccc(S(=O)(=O)N2CCN(Cc3cc(=O)n4ccccc4n3)CC2)c(C)c1
  A = -0.4 | B = / | C = -11% | D = 1 | E = / | F = 0.5% | G = -5
COc1cc2[nH]c(=S)n(Cc3cccs3)c(=O)c2cc1OC
  A = -1.5 | B = -1.2 | C = -4.7% | D = -4 | E = 8% | F = 3.0% | G = 11
Cc1nc(CC(=O)Nc2ccc(C)c(C)c2)cs1
  A = 2.2 | B = / | C = 1.3% | D = -3 | E = / | F = -0.6% | G = /
CCOc1ccccc1C(=O)Nc1ccc(S(=O)(=O)N2CCOCC2)cc1
  A = 1.6 | B = 1.5 | C = -1.0% | D = 23 | E = 17% | F = -1.6% | G = -18
COc1ccc(NC2=CC(=S)NC(C)(C)C2)cc1
  A = 0.9 | B = ? | C = -0.4% | D = 33 | E = -11% | F = 1.7% | G = 14
COCCCNC(=S)N/N=C/c1ccc(N(C)C)cc1Cl
  A = 2.1 | B = 2.4 | C = / | D = -12 | E = 3% | F = 1.0% | G = 0
CN1C(=O)/C(=C/c2cn(CC(=O)N3CCCCC3)c3ccccc23)NC1=S
  A = 3.3 | B = / | C = 1.7% | D = 6 | E = 0% | F = ? | G = -4
COc1ccc(NC(=O)N2CC[C@@]3(CCCN(C(=O)c4cc(C(F)(F)F)cc(C(F)(F)F)c4)C3)C2)cc1
  A = / | B = 0.7 | C = / | D = / | E = 20% | F = 0.4% | G = /
CCOc1ccc(NS(=O)(=O)c2ccc(C(=O)NCCCN3CCCC3=O)cc2)cc1
  A = 0.7 | B = / | C = ? | D = 1 | E = 26% | F = -2.0% | G = 1
COc1ccc(S(=O)(=O)n2cnc3cc(C)c(C)cc32)cc1
  A = -0.2 | B = 0.5 | C = 0.2% | D = -15 | E = -11% | F = -0.5% | G = -5
CSc1nc(S(C)(=O)=O)nc2[nH]c(=O)[nH]c12
  A = -0.1 | B = / | C = ? | D = -1 | E = / | F = -4.8% | G = /
COc1ccc(CCNC(=O)Cn2cc(C(=O)c3ccc(Cl)cc3)c(=O)c3ccc(C)nc32)cc1OC
  A = 0.6 | B = / | C = 0.9% | D = 4 | E = / | F = 1.5% | G = /
CCCCOP(=O)(OCCCC)C(O)c1ccc(N(C)C)cc1 (configuration not stated)
  A = -1.2 | B = -0.3 | C = / | D = 3 | E = 15% | F = 0.2% | G = -3
CC(C)CC(=O)NC(=S)Nc1ccc(N2CCCC2)c(Cl)c1
  A = -0.4 | B = 1.6 | C = -0.9% | D = 9 | E = 8% | F = 5.0% | G = -16
Cc1ccc(C)c(OCCC(=O)OCC(=O)NC(=O)NC2CCCCC2)c1
  A = 0.7 | B = / | C = / | D = -5 | E = / | F = ? | G = /
COc1ccccc1N1CCN(C(=O)c2ccc(Cl)c(S(=O)(=O)N3CCOCC3)c2)CC1
  A = 0.2 | B = / | C = -1.6% | D = 20 | E = 3% | F = 5.0% | G = -7
COc1ccc(C2/C=C\CN(C(=O)OCc3ccccc3)CC(=O)N2Cc2ccc(F)cc2)cc1 (configuration not stated)
  A = 2.3&4.2 | B = 1.1&-0.5 | C = 1.0% | D = 60&90 | E = -8%&-13% | F = 19% | G = -16
COc1ccc(-c2c(NC(C)=O)n(C)c3ccccc3c2=O)cc1
  A = -0.8 | B = 4.4 | C = 25µM* | D = 2 | E = 9% | F = -2.0% | G = -2
COCCn1c(C)cc(C(=O)COc2cccnc2[N+](=O)[O-])c1C
  A = -0.3 | B = -11 | C = 0.4% | D = 3 | E = -71% | F = 5.9% | G = 0
O=C(CSc1nc(-c2ccccc2)no1)N1CCN(c2ccccc2F)CC1
  A = 1.6 | B = / | C = 0.0% | D = 41 | E = / | F = -0.6% | G = /
CCc1cc(Cn2nc(-c3ccccc3)cc2C(=O)NCC2CC2)on1
  A = 0.1 | B = / | C = 0.7% | D = -4 | E = / | F = 0.2% | G = -25
Cc1snnc1C(=O)NC(=S)Nc1ccccc1
  A = -0.2 | B = 1.3 | C = / | D = 14 | E = 40µM* | F = 3.7% | G = 4
COc1ccc(CNC(=O)Cn2nc(C)c3nn(-c4ccc(Cl)cc4)c(C)c3c2=O)cc1
  A = 0.2 | B = / | C = -22% | D = -2 | E = / | F = -0.5% | G = /
CCC(c1nnc(SCC(=O)Nc2ccc(N3CCOCC3)cc2)n1Cc1ccccc1)N(C)C (configuration not stated)
  A = -0.3 | B = / | C = -1.9% | D = 2 | E = / | F = 6.5% | G = -18
CSCC[C@@H](C(=O)NCCCCCCCCCCC(=O)N1CCNCC1)n1cc(CCO)nn1
  A = -0.3 | B = / | C = -2.3% | D = -5 | E = / | F = 0.4% | G = -9
